# RanGTP-Impb inh – disruptors of Ran-importin-beta complex formation – biochemical, FRET, CFP-Ran, YFP-importin-beta, homogeneous, primary screen; cell-free CFP-Ran/YFP-importin-beta FRET ratio; inhibition, % (no concentration beside the values); 1.1% of 300,000 active;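 active = most replicates above 15%; inconclusive = exactly half above 15%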;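 note: 0% = DMSO wells and 100% = Ran loaded with GDP instead of GTP; wells of about 40 µL received 100 nL stock; the first replicate is given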
# Beta cell apopt – blocks beta cell apoptosis | 0.8% of 300,000 active | protection from apoptosis, % (no concentration beside the values) | AID 435005 | INS-1E cytokine-induced death, ATP luminescence, 48 h; percent of positive-control rescue, neutral wells zero;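 active = all replicates at 75% or more, or half of them and the mean; inconclusive = half reach 75% but not the mean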;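 note: 0% = cytokine-treated negative control wells and 100% = positive control rescue; higher means more ATP so stronger rescue from cytokine killing; wells of about 40 µL received 100 nL stock; the first replicate is given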
# T cruzi inh – blocks replication of Trypanosoma cruzi | T. cruzi beta-gal in NIH3T3, luminescence, 90 h | inhibition, % (concentration not given with the values) | 1.4% of 300,000 active | AID 1885;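 active = mean inhibition across valid replicates above about 55%, limit read from the data; inconclusive = mean below that limit but half or more replicates reach it; inactive = mean below it, under half of replicates reach it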;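 note: signal also drops with host cell toxicity which is not excluded here; 0% = plate median of DMSO wells and 100% = zero luminescence signal; higher percent means less beta-gal luminescence so fewer parasites; stock transfer was 50 nL into about 50 µL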
# FGF22 binding – binders of recombinant human FGF22 by thermal shift | Q9HCT0 | SYPRO orange fluorescence; percent of sucrose octasulfate shift, DMSO zero | calls only at 9.99 µM | 1.5% of 340,000 active;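 active = melting point raised past a set limit in the mean and every replicate; inconclusive = no clear call; three in four hits are not shown here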
# Target sequence (Q9HCT0 whole entry, looked up): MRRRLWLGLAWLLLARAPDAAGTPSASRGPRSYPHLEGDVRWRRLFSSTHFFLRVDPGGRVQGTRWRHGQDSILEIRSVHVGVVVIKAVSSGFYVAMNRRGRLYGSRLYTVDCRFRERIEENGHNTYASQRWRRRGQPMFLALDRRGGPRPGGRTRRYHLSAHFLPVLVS
# rRNA inh HTS – selective bacterial rRNA inhibition in E. coli; E. coli WT GFP vs humanized-ribosome RFP mutants, fluorescence, 24 h; hits give low values; DMSO median 0, no signal -100; GFP signal change (wild-type ribosome), % (test concentration not listed); 1.6% of 350,000 active; AID 720706;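 active = significant combined selectivity score with lowered wild-type GFP, culture density cut under 30%, mutant RFP and density less affected; inactive = any of these conditions unmet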; note: one replicate is shown; some compounds called inactive have numbers as strong as hits
# ALR inh – blocks human ALR sulfhydryl oxidase activity | P55789 | purified ALR, DTT oxidation, H2O2 HRP-luminol luminescence | inhibition, % (no concentration beside the values) | 3.8% of 290,000 active | AID 485317;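 active = mean and each replicate at 75% or more; inconclusive = only one of the two met; inactive = neither met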;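 note: stock transfer was 7.5 nL into about 7.5 µL; 0% = neutral wells and 100% = wells with inactivated enzyme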
# Target sequence (P55789 whole entry, looked up): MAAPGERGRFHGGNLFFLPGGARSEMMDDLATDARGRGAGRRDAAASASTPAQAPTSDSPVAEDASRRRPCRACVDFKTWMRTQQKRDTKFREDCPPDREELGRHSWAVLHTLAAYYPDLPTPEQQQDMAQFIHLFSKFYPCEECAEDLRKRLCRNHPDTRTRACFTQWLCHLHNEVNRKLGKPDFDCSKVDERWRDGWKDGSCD
# Calb FLC – affects C. albicans growth with fluconazole; 0.57% of 300,000 active; AID 1979; growth inhibition, % (no concentration beside the values); C. albicans CaCi-2 (fluconazole-resistant clinical isolate) + fluconazole, Alamar Blue growth, 48 h;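 active = most replicates above 75%; inconclusive = exactly half above 75%; inactive = most below 75%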;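 note: all wells also contain fluconazole at 8 µg/ml as a sub-toxic cotreatment; 0% = median of DMSO wells and 100% = median of geldanamycin control wells; wells of about 8 µL received 7.5 nL stock; the first replicate is given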
# AF4-AF9 inh – MLL-AF4/AF9 protein interaction inhibition; P42568; AlphaScreen, biotin-AF4 peptide binding to FLAG-AF9; inhibition, % at 10 µM; 0.47% of 350,000 active;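 active = every replicate reaching a set inhibition limit, whatever the replicate mean, cut at about 25% in these data; inconclusive = mean inhibition reaches that limit but some replicates miss it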;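 note: 0% = plate neutral control median and 100% = total signal loss; the record names both 10 and 1 µM as test concentration; the first replicate is given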
# Target sequence (P42568 whole entry, looked up): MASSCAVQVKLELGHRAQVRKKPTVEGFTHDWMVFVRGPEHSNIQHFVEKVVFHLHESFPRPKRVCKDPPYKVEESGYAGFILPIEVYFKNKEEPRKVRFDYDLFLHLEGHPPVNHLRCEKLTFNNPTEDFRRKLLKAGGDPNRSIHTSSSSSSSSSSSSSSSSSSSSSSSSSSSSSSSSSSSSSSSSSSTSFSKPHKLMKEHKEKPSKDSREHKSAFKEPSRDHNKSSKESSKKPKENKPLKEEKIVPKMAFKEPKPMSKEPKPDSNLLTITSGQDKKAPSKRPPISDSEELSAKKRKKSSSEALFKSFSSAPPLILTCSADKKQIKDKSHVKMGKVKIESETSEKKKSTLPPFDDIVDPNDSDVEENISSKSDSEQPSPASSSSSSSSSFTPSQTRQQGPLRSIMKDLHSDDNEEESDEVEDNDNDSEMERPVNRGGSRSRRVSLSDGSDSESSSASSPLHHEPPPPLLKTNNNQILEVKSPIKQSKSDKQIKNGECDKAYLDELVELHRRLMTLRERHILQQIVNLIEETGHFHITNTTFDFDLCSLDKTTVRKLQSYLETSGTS
# rRNA inh HTS OD600 – further read-out of rRNA inh HTS, marked with its call; OD600 change, %; measured here: OD600 growth;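 optical density of the mix in the first replicate; 0 = DMSO median and -100 = no signal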
# rRNA inh HTS RFP – recorded beside rRNA inh HTS, whose call it bears; RFP signal change, %; measured here: RFP humanized mutant strains;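 first replicate; 0 = DMSO median and -100 = no signal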
# Numbers without * were called inactive; i = inactive; ? = inconclusive; . = no result given.
canonical_smiles,RanGTP-Impb inh,Beta cell apopt,T cruzi inh,FGF22 binding,rRNA inh HTS,rRNA inh HTS OD600,rRNA inh HTS RFP,ALR inh,Calb FLC,AF4-AF9 inh
COc1ccc(CN2C(=O)c3cccnc3C2=O)cc1S(=O)(=O)NCc1ccco1,-1.9,-7,-18,i,0,13,-1.7,0,2,-3.0
COC(=O)CCCC1=CC2=C(c3ccccc3)C(=O)C(C)(OC(=O)C3CCCC3)C(=O)C2=CN1C1CC1 (centres undefined),-0.7,4,-4,i,5,20,16,-17,6,-5.2
Fc1ccc(CN2CCCCCCC2)cc1F,?,4,0,.,.,.,.,-33,6,.
O=[N+]([O-])c1cccc(S(=O)(=O)NCC2CC3CCC2C3)c1 (centres undefined),4.5,5,8,i,0,2,-2.6,-9,-29,3.1
CC(=O)c1ccc(OC(=O)C2CSC3(C)CCC(=O)N23)cc1 (centres undefined),.,-4,.,i,7,24,-0.9,.,.,-5.7
O=C(N/N=C/c1cc([N+](=O)[O-])ccc1O)NC12CC3CC(CC(C3)C1)C2,5.0,13,4,i,.,.,.,10,34,1.3
N#Cc1c(N)nc2c(c1-c1ccc(Br)s1)CCCC2,5.1,-12,-23,.,.,.,.,.,-2,.
COc1cccc(CN(C)C(=O)C2CCC(=O)N(Cc3cccc(F)c3)C2)c1 (centres undefined),-0.4,-1,1,i,3,9,2.5,-1,15,0.9
CCOc1cc(CNCc2ccc3c(c2)OCO3)ccc1OC,0.5,-6,-17,i,15,12,0.0,-7,4,1.5
Cc1ccc(NC(=O)CN2CCc3ccccc3C2)cc1C,6.7,2,-2,i,-20,-22,-1.6,-12,0,-7.0
CC(=O)Nc1ccc(S(=O)(=O)NCCCN2CCOCC2)cc1,5.9,2,3,i,1,6,-1.2,-2,-8,-0.2
Cc1ccc(S(=O)(=O)NCC(=O)NC2CCCCCC2)cc1,4.3,-18,-9,.,-13,-12,-6.5,0,-5,.

# Compound profiles, as listed above. Order of screens: RanGTP-Impb inh, Beta cell apopt, T cruzi inh, FGF22 binding, rRNA inh HTS, rRNA inh HTS OD600, rRNA inh HTS RFP, ALR inh, Calb FLC, AF4-AF9 inh
# Record of `N#Cc1c(N)nc2c(c1-c1ccc(Br)s1)CCCC2` = 5.1, -12, -23, ., ., ., ., ., -2, .
# Record of `CCOc1cc(CNCc2ccc3c(c2)OCO3)ccc1OC` = 0.5, -6, -17, i, 15, 12, 0.0, -7, 4, 1.5

# Returning to the listing, repeating the 3 entries before the break.
canonical_smiles,RanGTP-Impb inh,Beta cell apopt,T cruzi inh,FGF22 binding,rRNA inh HTS,rRNA inh HTS OD600,rRNA inh HTS RFP,ALR inh,Calb FLC,AF4-AF9 inh
Cc1ccc(NC(=O)CN2CCc3ccccc3C2)cc1C,6.7,2,-2,i,-20,-22,-1.6,-12,0,-7.0
CC(=O)Nc1ccc(S(=O)(=O)NCCCN2CCOCC2)cc1,5.9,2,3,i,1,6,-1.2,-2,-8,-0.2
Cc1ccc(S(=O)(=O)NCC(=O)NC2CCCCCC2)cc1,4.3,-18,-9,.,-13,-12,-6.5,0,-5,.
CCCN1CCC(NC(=O)C2CCCCC2C(=O)O)CC1 (centres undefined),2.6,-6,-13,i,21,8,3.0,-18,-6,-0.8
COc1cc(OC)c2c(=O)cc(-c3ccccc3)oc2c1,?,5,51,i,-10,-16,-4.5,-28,-5,-0.8
COc1ccc(NC(=O)CN2CCCN(S(=O)(=O)c3ccc(F)cc3)CC2)c(OC)c1,-0.7,6,19,i,-15,-15,3.4,-11,-4,-1.4
COC(=O)c1ccccc1NC(=O)N1CCN(S(C)(=O)=O)CC1,-3.5,-2,-7,.,5,6,-3.3,-11,-4,-1.8
COCC(C)NC(=O)C1CCN(S(=O)(=O)c2ccc3ccccc3c2)CC1 (centres undefined),.,-2,-6,i,-2,-6,-0.1,-6,0,-8.1
CCN(C(=O)CSc1nnc(-c2ccccc2)n1C)C1CCS(=O)(=O)C1 (centres undefined),-3.6,4,-8,i,15,16,0.9,-16,23,-1.4
COc1ccc(CNC(=O)C2CCN(S(=O)(=O)c3ccc(Br)s3)CC2)cc1,3.7,0,19,i,0,-4,-2.1,-10,-3,0.4
O=C(O)c1ccc(/C=N/n2c(C3CCCCC3)n[nH]c2=S)cc1,-6.6,-1,-11,i,-21,-34,-8.5,98*,-5,-15
Cc1cc(Cl)ccc1C(=O)C1CCCN(C(=O)c2ccc3ncccc3c2)C1 (centres undefined),-0.7,-5,17,i,-31,-38,-9.1,-21,-11,1.0
Cc1nc(CN2CCN(C(=O)NC3(c4ccccc4)CC3)CC2)cs1,1.2,1,-16,.,.,.,.,-5,-1,.
CC(=O)c1cccc(NC(=O)c2cnn3ccccc23)c1,2.7,5,-17,i,-2,11,-1.5,.,-4,-10
N#Cc1nc(COc2ccccc2F)oc1NCCc1ccccc1,-0.2,2,10,.,.,.,.,2,-5,.

# Marked active in ALR inh, among the entries above:
mol	RanGTP-Impb inh	FGF22 binding	rRNA inh HTS	rRNA inh HTS OD600	rRNA inh HTS RFP	ALR inh	AF4-AF9 inh
O=C(O)c1ccc(/C=N/n2c(C3CCCCC3)n[nH]c2=S)cc1	-6.6	i	-21	-34	-8.5	98*	-15

# Further results follow.
canonical_smiles,RanGTP-Impb inh,Beta cell apopt,T cruzi inh,FGF22 binding,rRNA inh HTS,rRNA inh HTS OD600,rRNA inh HTS RFP,ALR inh,Calb FLC,AF4-AF9 inh
COc1ccccc1N1C(=O)CC(N2CCN(c3ccc([N+](=O)[O-])cc3)CC2)C1=O (centres undefined),1.2,5,-1,i,-6,-3,-5.0,-10,4,1.1
O=C(CNC(=O)c1ccco1)Nc1ccc(F)cc1,-3.4,-12,-15,i,29,23,4.0,0,-13,-1.1
Cc1ccc(/C=N/N2CCN(c3ccccn3)CC2)o1,2.4,0,4,i,9,9,-0.6,.,12,4.8
COCCNC(=O)C(c1ccc(OC)cc1)N(C(=O)Cn1nnc2ccccc21)c1cccnc1 (centres undefined),?,7,-16,i,16,14,1.3,2,-5,0.0
COc1ccc(NS(=O)(=O)c2cc(NC(=O)Cc3cccs3)ccc2C)cc1,-4.1,7,5,i,.,.,.,2,6,0.4
Cc1ccc(C)c(OCCC(=O)NNC(=O)Cn2nc(C)cc2C)c1,4.7,-1,-8,.,2,4,-2.6,-2,-6,0.3
CSCC[C@H](NC(=O)OC(C)(C)C)C(=O)N/N=C/c1c(C)[nH]c(=O)[nH]c1=O,2.4,-5,-20,.,.,.,.,-6,-6,.
CC(C)(C)c1cc(NC(=O)c2cccs2)no1,0.6,8,21,i,-1,5,-0.6,-3,9,-0.4
O=C1CC(C(=O)O)S/C(=N\N=C\c2ccc(Br)cc2)N1 (centres undefined),3.1,-2,-15,i,0,-18,-1.1,4,15,-7.3
C=C(C)CSc1nc2sc3c(c2c(=O)n1-c1ccc(OC)cc1)CCN(C)C3,5.0,-1,40,i,2,-1,1.0,1,-19,5.6
O=C(COC(=O)c1cccs1)NCc1ccccc1,1.7,0,-6,.,5,1,-1.8,0,.,.
COc1ccc(Cl)cc1NC(=O)CN(C1CCCCC1)S(C)(=O)=O,0.2,-5,4,.,.,.,.,-9,-15,.

# New compounds follow
canonical_smiles,RanGTP-Impb inh,Beta cell apopt,T cruzi inh,FGF22 binding,rRNA inh HTS,rRNA inh HTS OD600,rRNA inh HTS RFP,ALR inh,Calb FLC,AF4-AF9 inh
Cc1ccc(NC(=O)CN(C)S(=O)(=O)c2cccs2)cc1C,0.9,-8,-12,i,-2,2,0.0,2,10,-43
Cc1cc(C(C)(C)C)oc1C(=O)O,-1.3,0,-6,i,7,11,-1.5,-3,-3,-4.2
Cc1ccc2c(c1)C(=O)CC1(CCC(C(C)(C)C)CC1)O2 (centres undefined),?,5,2,i,6,2,-7.0,-10,-1,-2.6
O=P(Cc1ccccc1O)(c1ccccc1)c1ccccc1,2.8,-5,11,i,-5,-17,-15,24,-3,-35
CCCc1cc(C(=O)N/N=C/c2cccn2C)cs1,-0.8,.,-9,i,-12,-8,-0.1,7,-32,3.7
Cc1ccc(C(=O)CN(CCC(=O)O)C(=O)c2ccncc2)cc1,.,1,.,i,4,10,-9.1,-1,.,0.0
Cc1cccc(OCC(O)CN2CCc3ccccc3C2)c1 (centres undefined),-0.5,-2,11,i,7,7,3.8,-1,-2,0.1
COc1cc(NS(=O)(=O)c2ccc(NC(=S)NC(=O)/C=C/c3ccc(OC)c(OC)c3)cc2)ncn1,0.5,1,-12,i,14,9,2.2,14,35,-2.2
COc1ccccc1/C=C1\SC(=O)N(CCC(=O)N2CCCCC2CCO)C1=O (centres undefined),0.6,-8,1,i,-9,-13,4.5,-5,4,4.6
CCOC(=O)C1CCCN(C(=O)COc2ccc(N(C)S(=O)(=O)c3ccc(F)cc3)cc2)C1 (centres undefined),5.7,-7,35,.,-5,-11,-6.3,10,3,8.1
COc1ccc(Cl)cc1S(=O)(=O)n1cnc2ccccc21,-1.8,-7,1,.,.,.,.,5,0,.
NC(=O)CC[C@@H]1NC(=O)[C@H](Cc2ccc(O)cc2)NC(=O)c2cc([N+](=O)[O-])cc(F)c2OCC[C@@H](C(N)=O)NC1=O,1.2,.,-14,i,28,20,0.9,4,-1,-5.1

# Later entries.
canonical_smiles,RanGTP-Impb inh,Beta cell apopt,T cruzi inh,FGF22 binding,rRNA inh HTS,rRNA inh HTS OD600,rRNA inh HTS RFP,ALR inh,Calb FLC,AF4-AF9 inh
COCCNC(=S)N(c1ccccc1)C(C)C,-1.8,-7,-1,.,6,-4,-3.0,50,-1,-8.7
CCOC(=O)C1=C(C)Nc2nnnn2C1c1cccnc1 (centres undefined),0.6,-3,-6,.,.,.,.,6,6,.
CCOC(=O)C(C(=O)OCC)C(=O)c1cc(OC)c(OC)c(OC)c1,1.8,-2,6,.,.,.,.,3,-3,.
O=C(NNC(=O)c1ccc(O)cc1O)c1ccc(Cl)cc1,0.7,4,7,.,.,.,.,40,-5,.
COc1ccc(C2CC(C)(c3ccc(OC)cc3OC)Nc3ccccc3N2)c(OC)c1 (centres undefined),3.4,43,73*,i,14,12,-1.3,-18,?,0.8
CCOc1ccc(C(=O)COC(=O)CNC(=O)C2CCCCC2)cc1,.,-1,.,i,5,21,-0.7,0,.,4.3
Cn1c(N)c(C(=O)COC(=O)Cc2cccc(C(F)(F)F)c2)c(=O)n(C)c1=O,.,-3,.,i,0,3,0.2,-1,.,0.2
O=C(O)CSc1nc2ccccc2n1-c1ccccc1,4.9,4,-17,i,4,-16,-1.8,-1,?,-2.6
CN(Cc1cc(=O)[nH]c2ccccc12)C(=O)c1ccccc1,1.1,5,-18,i,6,-1,-6.7,-9,13,-7.1
COc1ccc(NC(=O)c2ccc(C)cc2)c[n+]1[O-],-0.5,-4,-5,i,7,13,-2.5,-7,3,0.5
COc1cc(CNc2ccccc2SC)cc(OC)c1OC,-2.6,-1,5,i,-20,-19,3.2,48,-38,1.8
COc1ccccc1[C@@H]1C(c2cccc(C)c2)=NN(c2ccccc2)[C@H]1C(=O)N1CCOC1=O,-0.6,-3,24,i,13,9,1.7,6,3,0.5
O/N=C/c1ccccc1OCc1ccccc1F,-5.1,-8,2,.,.,.,.,-1,-11,.
Cc1cc(=O)oc2cc(NC(=O)CCOc3ccccc3)ccc12,0.4,0,4,i,8,12,-0.8,-8,15,-0.6

# Screens: PubChem, Broad Institute

# An excerpt (hit frequency here may not be typical).
